Mtb MenB inh: blocks the Mycobacterium tuberculosis MenB enzyme | P9WNP5 | MenB enzyme assay, absorbance read-out; some hits fall short of the stated cut | inhibition, %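 (about 12 µg/mL by stock and volumes)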 | 100,000 tested, 0.43% active | AID 540299;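 active = mean of two replicates above 30%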;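 also: 0% = no compound and 100% = wells with inactive enzyme; the first replicate is given; strong numbers were not always called active; inactives centre near -10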
MbtI inh: MbtI salicylate synthase inhibition; purified MbtI enzyme, fluorescence intensity read-out; inhibition, %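 (about 17 µg/mL by stock and volumes)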; 100,000 tested, 0.89% active;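 active = above 50% in both replicates, above 80% if mildly self-fluorescent; inactive = the rest, strongly fluorescent compounds included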;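 also: 0% = mean of negative and 100% = mean of positive controls; one replicate is shown; some compounds called inactive have numbers as strong as hits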
Target sequence (P9WFX0 whole entry, looked up): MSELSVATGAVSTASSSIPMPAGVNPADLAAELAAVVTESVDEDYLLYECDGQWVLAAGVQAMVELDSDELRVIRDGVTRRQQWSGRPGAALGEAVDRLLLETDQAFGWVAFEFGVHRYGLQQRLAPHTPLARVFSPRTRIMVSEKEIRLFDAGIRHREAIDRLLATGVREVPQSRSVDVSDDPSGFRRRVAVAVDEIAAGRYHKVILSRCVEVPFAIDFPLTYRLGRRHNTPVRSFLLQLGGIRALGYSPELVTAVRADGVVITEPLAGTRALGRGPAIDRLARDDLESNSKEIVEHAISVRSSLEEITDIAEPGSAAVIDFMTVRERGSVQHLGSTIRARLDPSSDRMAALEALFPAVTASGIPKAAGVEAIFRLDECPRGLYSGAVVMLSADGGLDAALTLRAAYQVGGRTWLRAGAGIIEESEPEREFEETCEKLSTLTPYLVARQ
PV pol inh: poliovirus RNA polymerase inhibition | P03300 | % elongation, % (compound at 16.7 µg/mL) | poliovirus polymerase elongation, fluorescence polarization; hits give low values | 150,000 tested, 0.66% active | AID 588519; in the data active = % elongation below about 90%; also: some results filed as inactive read as strong as hits
Target sequence (P03300 1749-2209 limits assumed): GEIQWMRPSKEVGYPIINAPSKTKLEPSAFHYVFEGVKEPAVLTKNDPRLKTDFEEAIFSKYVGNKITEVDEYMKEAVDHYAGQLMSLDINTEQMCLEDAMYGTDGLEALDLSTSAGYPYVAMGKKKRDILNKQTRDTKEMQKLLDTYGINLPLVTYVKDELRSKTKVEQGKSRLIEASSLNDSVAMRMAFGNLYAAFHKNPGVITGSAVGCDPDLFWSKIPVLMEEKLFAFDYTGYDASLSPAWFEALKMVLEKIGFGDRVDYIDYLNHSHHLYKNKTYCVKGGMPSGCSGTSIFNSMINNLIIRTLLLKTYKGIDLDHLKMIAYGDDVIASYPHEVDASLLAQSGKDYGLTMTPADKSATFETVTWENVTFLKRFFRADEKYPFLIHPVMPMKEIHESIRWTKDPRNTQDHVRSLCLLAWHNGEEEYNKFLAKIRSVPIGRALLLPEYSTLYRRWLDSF
PV pol inh intensity: second read-out of PV pol inh, no call of its own (marks repeat the call); % elongation; measured here: total intensity read-out; formula for this scale not given here;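 total fluorescence in place of polarization; lower means less elongation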
* marks the source's active call; other numbers are inactive results; i = inactive; · = not tested or not shown; & = joins results of further samples.

SMILES	MbtI inh	PV pol inh	PV pol inh intensity	Mtb MenB inh
COCCCN1C(=O)CC(Nc2ccc(N(C)C)cc2)C1=O (stereo not given)	8.1	·	·	4.8
COc1cccc([C@H]2Nc3ccc(S(=O)(=O)Nc4ccc(C)c(C)c4)cc3[C@H]3C=CC[C@H]32)c1OC	0.4	102.0	121.0	-20.5
O=C(O)CCNc1ncnc2sc3c(c12)CCCC3	3.4	102.0	104.0	-17.0
CCc1ccc(Nc2cc(C(=O)N3CCOCC3)c3ccccc3n2)cc1	-9.3	104.0	108.0	-16.9
Nc1cccc(-c2nc3ccccc3s2)c1	114.6	104.0	103.0	-19.7
CCn1c(SC)nnc1C1CCN(C(=O)C(OC)c2ccccc2)CC1 (stereo not given)	-6.4	104.0	102.0	-45.8
CCOC(=O)Cc1csc(NC(=O)CSc2nccn2C)n1	4.5	100.0	98.0	6.7
O=C1CCN(C(=O)c2ccccc2)C2CCCCC12 (stereo not given)	-5.7	101.0	101.0	-18.3
CC(C)OC(=O)c1cc(N)c2c(-c3ccc(F)cc3)c(-c3cccs3)sc2n1	·	99.0	170.0	-14.2
COc1ccc(C2=NOC(C(=O)N3CCCCC3C)C2)cc1 (stereo not given)	2.6	103.0	100.0	-0.1
C=C(C)C(=O)NNc1ccccc1	8.2	101.0	96.0	1.5
O=C(NCCCc1nc2ccccc2[nH]1)c1ccco1	-1.0	104.0	105.0	8.1
CC(Oc1ccc(C(C)(C)C)cc1)C(=O)NCC1CCCO1 (stereo not given)	-10.4	100.0	103.0	-3.4
CC1CCN(C(=O)c2cc(=O)[nH]c3ccccc23)CC1	13.8	99.0	109.0	7.1
NC(=O)CCN1CCCCC1c1cccnc1 (stereo not given)	0.4	100.0	105.0	7.4
CC(C)Oc1cccc(C(=O)NC(C)(C)C)c1	10.9	102.0	101.0	14.5
N#Cc1ccccc1NC(=S)NC(=O)c1cc(-c2ccco2)nc2ccccc12	-121.9	107.0	110.0	-32.4
CC1=C(C)C(=O)N(c2ccccn2)C1=O	-45.3	104.0	101.0	-0.9
CCc1nc2ccccc2[nH]1	-8.1	101.0	100.0	·
Cc1ccc(N(C(=O)Cn2nnc(-c3ccc(C)o3)n2)C(C(=O)NC2CCCCC2)c2ccc(F)cc2)c(C)c1 (stereo not given)	-2.8	102.0	102.0	-14.9
CC1=C(C)C(=O)C(NCC2CCCO2)=CC1=O (stereo not given)	20.4	70.0*	75.0*	-119.0
CC(NC(=O)c1ccc(Br)o1)c1ccccc1 (stereo not given)	-3.1	103.0	102.0	·
Cc1cc(C)cc(OC2CCCCC2NS(=O)(=O)c2ccc(Cl)cc2)c1 (stereo not given)	-1.2	101.0	103.0	-2.1
O=C(NCCOc1ccccc1Cc1ccccc1)c1ccc2c(c1)OCO2	·	107.0	105.0	-11.0
COC(=O)c1cnn(-c2ccccc2)c1N	-4.2	102.0	107.0	-23.7
COc1cccc(OCCn2cc(C(=O)c3cccs3)c3ccccc32)c1	3.8	102.0	102.0	-55.2
COc1ccc(-c2cc(C(=O)O)c(C)o2)cc1OC	-147.1	102.0	99.0	-19.6
Cc1sc2nc(N)sc(=O)c2c1C	17.5	105.0	109.0	-26.9
Cc1ccc(-n2nc(C)c(/C=N/N3CCOCC3)c2Cl)cc1	-4.8	100.0	102.0	-4.5
O=C(NCc1ccccc1)N1CCn2cccc2C1Cc1ccccc1 (stereo not given)	0.4	99.0	101.0	7.2

Some entries already given, limited to PV pol inh and MbtI inh:
canonical_smiles | PV pol inh | MbtI inh
CC1CCN(C(=O)c2cc(=O)[nH]c3ccccc23)CC1 | 99.0 | 13.8
NC(=O)CCN1CCCCC1c1cccnc1 (stereo not given) | 100.0 | 0.4
CC(C)Oc1cccc(C(=O)NC(C)(C)C)c1 | 102.0 | 10.9

Returning to the listing with the 3 entries that preceded the break.
SMILES	MbtI inh	PV pol inh	PV pol inh intensity	Mtb MenB inh
Cc1sc2nc(N)sc(=O)c2c1C	17.5	105.0	109.0	-26.9
Cc1ccc(-n2nc(C)c(/C=N/N3CCOCC3)c2Cl)cc1	-4.8	100.0	102.0	-4.5
O=C(NCc1ccccc1)N1CCn2cccc2C1Cc1ccccc1 (stereo not given)	0.4	99.0	101.0	7.2
O=C(Cn1c(=O)n2ncnc2c2c3c(sc21)CCCC3)c1ccccc1	-16.1	92.0	95.0	-9.3
CN(c1ccccc1)C1CCCCC1NS(=O)(=O)c1ccccc1 (stereo not given)	-7.9	103.0	99.0	-10.5
O=C1CCc2cc(S(=O)(=O)NCCC(=O)NC3CCCCCCC3)ccc2N1	-15.2	103.0	105.0	-3.8
Cc1ccc(C(=O)COC(=O)CN2C(=O)C3CC=CCC3C2=O)cc1C (stereo not given)	14.5	98.0	101.0	-25.6
Cn1c(Sc2c3c(nc4ncnn24)CCC3)nnc1-c1ccccc1	11.2	107.0	109.0	14.4
CC1(C)NC(=O)N(CN2CCCCC2)C1=O	-11.1	103.0	99.0	-19.7
O=C(CSc1ncccn1)Nc1ccc2c(c1)OCCCO2	11.3	99.0	104.0	4.8
Fc1ccc(-n2cc(-c3ccccc3)c3c(NCCC4=CCCCC4)ncnc32)cc1	-47.0	101.0	103.0	-44.6
Cc1ccc(O)c(NC(=O)c2cccnc2Cl)c1	0.0	103.0	103.0	-14.3
CCN(CC)Cc1cc(Nc2ccnc3cc(Cl)ccc23)ccc1O	24.1	101.0	98.0	-5.6
CCCOc1cc(C)c(S(=O)(=O)NCCOC)cc1C	-4.5	103.0	102.0	-15.5
CC1(C)OC(=O)N(CC(=O)Nc2ccc(F)cc2)C1(C)O (stereo not given)	·	103.0	106.0	0.9
O=c1c2nnn(Cc3ccc(F)cc3)c2ncn1Cc1ccc(F)cc1	11.6	100.0	93.0	-12.1
COc1cc2c(cc1OC)CN(c1nnnn1-c1ccccc1)CC2	-5.9	102.0	101.0	3.1
CC1CN(C)C(C)CC1n1[nH]c(=O)cc1N (stereo not given)	·	111.0	115.0	9.8
CCOC(=O)c1cnc2ccccc2c1Nc1ccc(N2CCOCC2)cc1	6.7	103.0&99.0	103.0&103.0	-15.3
COc1ccc(-c2c(C)nn3c(C)cc(C)nc23)cc1OC	-2.5	100.0	103.0	17.9
COc1ccc(NC(=O)CC(NCc2ccccc2)C(=O)O)cc1 (stereo not given)	-11.6	106.0	102.0	-22.6
Cc1ccc(Cn2c(=O)c3ccccc3n3c(SCC(=O)N(C(C)C)C(C)C)nnc23)cc1	1.4	105.0	107.0	-3.4
CCn1nc(C)cc1/C(N)=N/OC(=O)c1cc(Cl)cc(Cl)c1	8.6	102.0	94.0	-7.8
CCN(CC1COc2ccccc2O1)C(=O)c1ccc2c(c1)SC1=NS(=O)(=O)CCN12 (stereo not given)	7.0	84.0*	79.0*	-32.8
CC1=C(O)C(=O)C=C2C1=CC=C1[C@@]2(C)CC[C@@]2(C)[C@@H]3C[C@](C)(C(=O)O)CC[C@]3(C)CC[C@]12C	102.7*	102.0	103.0	12.2
Cc1cccc(C)c1NC1=NCCS1	-12.2	107.0	108.0	7.7
CN(Cc1cccs1)S(=O)(=O)c1ccc(Br)cc1Cl	0.3	103.0	101.0	1.4
CC(C)CNC(=O)c1ccccc1	·	105.0	107.0	-3.8
CC(C)S(=O)(=O)c1ccc(Cl)cc1	-0.8	103.0	100.0	·
COc1ccc(CNC(=O)COC(=O)Cc2ccc(OC)cc2)cc1	-8.6	106.0	110.0	-27.0
COC(=O)COc1ccc(Oc2nc(NCC(C)C)nc(N3CCOCC3)n2)nn1	-7.7	103.0	104.0	-8.5
CCn1c(CC(=O)Nc2ccccc2)nnc1SCC(=O)N1CCc2ccccc21	-1.5	101.0	103.0	9.8
COc1ccc(CNCc2ccccc2)cc1	-4.3	101.0	101.0	-10.6
CSc1nc(N)c(C#N)cc1C#N	·	119.0	120.0	-14.1
O=C1CC(c2cnc[nH]2)C2(CCCCC2)O1 (stereo not given)	-18.2	100.0	106.0	16.8
CC(=O)OCOC(=O)CNc1ccccc1OCCOc1ccccc1NCC(=O)OCOC(C)=O	-31.9	101.0&100.0	103.0&102.0	-6.3
O=C(NC12CC3CC(CC(C3)C1)C2)c1cccnc1	9.5	101.0	98.0	-29.7
Cc1cc(C)n(C(=O)CNc2ccccc2Cl)n1	-7.9	100.0	103.0	-4.7
CCOC(=O)N1CCC(NC(=O)NCc2noc3ccccc23)CC1	-10.9	101.0	107.0	6.0
O=C(c1nnc(Cc2ccc(F)cc2Cl)o1)N1CCN(c2ccccn2)CC1	1.8	96.0	104.0	-23.4
COC(=O)c1ccc(S(N)(=O)=O)o1	-26.9	102.0	103.0	-21.5
Cc1cc(C)c(C2C(C#N)=C(N)Oc3n[nH]c(C)c32)cc1COc1ccccc1Cl (stereo not given)	-1.9	103.0	103.0	-28.9
CCCC1Cc2nc3sc(C(=O)OCC)c(N)c3cc2CO1 (stereo not given)	7.7	100.0	100.0	5.0
Cc1ccc(CNCCN2CCOCC2)o1	·	104.0	118.0	3.8
CCc1ccc(OC(=O)/C=C/c2ccco2)cc1	11.7	101.0	102.0	-10.6
C=CCNCc1nc(-c2cccc(C)c2)no1	4.0	101.0	104.0	9.2
CCNS(=O)(=O)c1ccc(NC(=O)c2ccc3c(c2)OCO3)cc1	4.1	104.0	102.0	-101.3
Cc1ccc(C)c(NC(=O)CN(C)C(C)C(=O)N2CC(C)CC(C)C2)c1 (stereo not given)	4.2	109.0	102.0	0.5
N#CC(C(=O)c1ccco1)c1ccccn1 (stereo not given)	8.4	104.0	103.0	·
CC(C)(C)NC(=O)c1cc2c(s1)CCCCC2	12.9	100.0	99.0	-1.5
O=C(NC(=S)NC1CCCc2ccccc21)c1ccco1 (stereo not given)	11.1	103.0	108.0	-24.6
O=C(c1ccccc1)N(Cc1ccc(Cl)cc1)Cc1ccco1	-9.3	104.0	106.0	-7.8
Cc1cc(NC(=O)COC(=O)Cc2ccsc2)ccc1Br	-8.9	103.0	105.0	·
CCOc1cc(C=NCCN2Cc3ccccc3C2=O)ccc1O	·	108.0	114.0	-2.8
NC(=O)c1ccccc1OCC(=O)NS(=O)(=O)c1ccc(Cl)cc1	-4.8	98.0	104.0	-26.4
O=C(Nc1ccccc1)C1CCN(C(=O)Nc2ccccc2)CC1	8.6	103.0	105.0	-11.8
O=C1CCC(=O)N1CNC1CCCCC1	0.8	103.0	104.0	4.7
N/C(=N\NS(=O)(=O)c1ccccc1)c1ccccn1	6.8	104.0	96.0	-13.3
O=c1oc2ccccc2n1Cc1ccc(C(F)(F)F)cc1	-8.2	101.0	92.0	-4.0
O=c1[nH]c2ccccc2[n+]([O-])c1-c1ccccc1	-12.0	104.0	106.0	-43.1
NC(=O)C1CCN(c2nnnn2-c2ccccc2)CC1	-8.0	104.0	109.0	-0.2
COc1cccc(OC)c1OC(=O)/C=C/c1ccc(C)o1	7.2	102.0	100.0	-13.7
O=C(COC(=O)c1cccc(Cl)c1Cl)Nc1ccc2[nH]c(=O)[nH]c2c1	7.1	103.0	101.0	-27.4

Next results follow.
SMILES	MbtI inh	PV pol inh	PV pol inh intensity	Mtb MenB inh
N#CCc1nc(CCNc2ccccc2)no1	-6.2	106.0	105.0	-18.0
O=C(Nc1ccc(-c2nc3cc(NC(=O)C4CCCCC4)ccc3o2)cc1)C1CCCCC1	-12.4	103.0	105.0	-12.9
Cc1ccc(C(=O)Nc2noc3ccccc23)cc1	28.7	101.0	102.0	10.2
Cc1ccc2c(c1)C1OCCC1C(c1ccco1)N2 (stereo not given)	i	104.0	99.0	8.3
O=C(CCC(=O)N1CCN(c2ccc(F)cc2)CC1)c1ccc(Cl)cc1	-15.6	104.0	105.0	-33.0
O=C(O)C1=COCCO1	-4.2	104.0	106.0	·
Cc1ccc(C)c(NC(=O)C2CCCN(S(=O)(=O)c3c(C)nn(C)c3C)C2)c1 (stereo not given)	-2.0	101.0	103.0	-29.7
Cc1cccc(NS(=O)(=O)c2ccc(-c3cc(C(F)(F)F)no3)s2)c1	-17.1	102.0	103.0	-35.5
CCC(=O)Nc1nc(NC(=O)CC)c2ncn(C(=O)CC)c2n1	·	102.0	101.0	8.5
O=C(NC(C(=O)O)C12CC3CC(CC(C3)C1)C2)c1ccc(F)cc1 (stereo not given)	1.9	105.0	105.0	-1.8
O=C(Cc1ccccc1)OCC(=O)c1cccc(C(F)(F)F)c1	-9.3	101.0	105.0	·
CC(Oc1ccc(Cl)cc1Cl)C(=O)Nc1ccc(Cl)cn1 (stereo not given)	-2.1	100.0	100.0	-19.1
CCCn1c(SC(C)C(=O)Nc2ccc(C#N)cc2)nc2ccccc21 (stereo not given)	4.2	104.0	107.0	0.4
CCN1C(=O)/C(=C\c2ccc(-c3ccc(Cl)c(C(=O)O)c3)o2)SC1=S	66.6*	75.0	177.0	-159.4
FC(F)(F)c1ccc(C=Nn2c(-c3ccccc3)n[nH]c2=S)cc1	·	102.0	105.0	0.3
